KLK5 inh = human KLK5 protease inhibitors, primary screen, biochemical, 1536-well | Kallikrein-5 (Homo sapiens), Q9Y337 | recombinant hK5, fluorogenic AMC substrate cleavage | inhibition, % at 5 µM | hit rate 0.59% among 210,000;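 active means inhibition of 40% or more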;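 further: 0% = enzyme controls without compound and 100% = no-enzyme blanks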
Furin inh = human furin inhibitors, primary screen, biochemical, fluorescence intensity. purified furin, fluorogenic substrate cleavage. inhibition, % at 30 µM. hit rate 0.061% among 220,000. AID 463115, 2010; in the data active means inhibition above about 25%; further: inactives centre near -15
FXIa inh 1536 = human FXIa protease inhibitors, primary screen, biochemical, 1536-well; purified FXIa, Boc-Glu-Ala-Arg-AMC fluorogenic substrate; inhibition, % at 5 µM; hit rate 0.14% among 220,000; AID 798, 2007; Coagulation factor XI (Homo sapiens), P03951;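 active means inhibition of at least 40%; inactive means inhibition below 40%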;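 further: fluorescence of freed AMC excited at 355 nm; 0% = enzyme without compound and 100% = no enzyme blank; many of its hits are not listed in these tables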
Target sequence (P03951 19-387 limits assumed): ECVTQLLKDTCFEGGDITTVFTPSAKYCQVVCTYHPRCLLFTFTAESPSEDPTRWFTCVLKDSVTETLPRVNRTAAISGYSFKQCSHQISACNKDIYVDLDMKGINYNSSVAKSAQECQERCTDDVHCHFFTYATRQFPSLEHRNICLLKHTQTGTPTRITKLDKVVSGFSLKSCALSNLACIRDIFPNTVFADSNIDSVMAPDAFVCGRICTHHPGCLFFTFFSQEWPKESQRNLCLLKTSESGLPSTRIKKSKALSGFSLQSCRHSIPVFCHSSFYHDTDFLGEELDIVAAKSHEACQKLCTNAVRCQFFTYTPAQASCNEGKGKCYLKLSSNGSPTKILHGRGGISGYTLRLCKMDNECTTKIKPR
Target sequence (P03951 388-625 limits assumed): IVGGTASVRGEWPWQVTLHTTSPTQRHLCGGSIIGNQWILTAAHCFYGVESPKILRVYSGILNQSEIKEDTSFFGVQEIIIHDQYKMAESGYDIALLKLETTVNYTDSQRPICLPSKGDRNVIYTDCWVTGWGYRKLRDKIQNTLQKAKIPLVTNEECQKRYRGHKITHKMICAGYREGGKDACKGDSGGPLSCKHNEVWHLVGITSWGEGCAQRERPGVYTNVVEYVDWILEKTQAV
PERK inh = block of dimerizer-induced PERK translation repression, primary screen, PERK inhibitor project, CHO PERK-DD cells, SEAP luminescence, HTS | hit rate 0.17% among 220,000 | CHO PERK-DD fusion, SEAP luminescence translation reporter | inhibition, % at 5.6 µM | Eukaryotic translation initiation factor 2-alpha kinase 3 (Homo sapiens), Q9NZJ5;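 active means inhibition above the mean inhibition of all tested compounds plus 3 SD, set separately per screening campaign, cut at about 2.9% in these data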;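 further: PERK kinase domain activated by AP20187 dimerizer at 100 nM; 0% = DMSO with dimerizer and 100% = rapamycin at 8.4 µM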
Rad51 HR inh = human RAD51 strand exchange inhibitors, primary screen, biochemical, fluorescence | DNA repair protein RAD51 homolog 1 (Homo sapiens), Q06609 | hRad51 DNA strand exchange, fluorescence dequenching | inhibition, % at 10 µM | hit rate 0.085% among 200,000 | AID 1385, 2008;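 active means inhibition above 40% at the single screening dose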;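 further: 0% = DMSO control wells and 100% = blanks with heterologous ssDNA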
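Read-out basis: percent inhibition relative to plate controls and blanks / Assay system: human Rad51 nucleoprotein filaments preassembled on unlabelled ssDNA / Timing: filaments 15 min 37 °C, then compound 30 min / Control set: per-plate controls and blanks / Technique: fluorescence dequenching at 485/520 nm / Compound: 10 µM final, single point / Also added: Fluorescein- and BHQ1-tagged 47-mer duplex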
FXIIa inh = human FXIIa protease inhibitors, primary screen, biochemical, 1536-well; purified FXIIa, Boc-QGR-AMC fluorogenic substrate, 2 h; hit rate 0.3% among 220,000; inhibition, % at 5 µM; AID 800, 2007; Coagulation factor XII (Homo sapiens), P00748; in the data active means inhibition above about 40%;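 further: 0% = enzyme with no compound and 100% = blank without enzyme; many of its hits are not listed in these tables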
Numbers without * were called inactive; . = not tested or not shown; & = joins results of further samples; [ ] = another dose, or the depositor's remark. A portion of the library; count on the stated rates, not on these rows.

SMILES	KLK5 inh	Furin inh	FXIa inh 1536	PERK inh	Rad51 HR inh	FXIIa inh
COc1ccc(C(=O)n2nc(C)c(Br)c2C)cc1	12	-17[20 µM]	9	-0.3	4	19
Cc1ccc2c(CC(=O)N3CCN(S(=O)(=O)c4ccc5c(c4)OCCO5)CC3)coc2c1	3	5	-3	-1.2	0	10
O=C(O)Cn1nc(C(F)(F)F)c2c1CCCCC2	-10	-17	-8	0.5	-2	8
O=C(NC(CO)C(O)c1ccc([N+](=O)[O-])cc1)C(Cl)Cl (stereo unspecified)	-1	-23	-3	0.9	-3	2
COc1ccccc1OCC(O)CO (stereo unspecified)	4	-30	-3	1.4	6	0
O=S(=O)(c1ccc2nc(SCc3cccc(Cl)c3)[nH]c2c1)N1CCOCC1	-15	-16	4	-1.2	-6	12
O=C(CCCN1CCC(O)(c2ccc(Cl)cc2)CC1)c1ccc(F)cc1	13	-14	5	-2.2&0.1	-1&9	12
COc1ccc(/C(N)=N/OC(=O)CSc2ccccc2)cc1	-9	-20[20 µM]	0	0.0	5	9
Cn1c(=O)n(C)c2cc(/C=N/NC(=O)c3cccc(Br)c3)ccc21	-12	-21[20 µM]	-3	-1.1	-5	3
Cc1nc(=O)c(-c2ccccc2)c(C)n1-c1ccc(O)c(C(=O)O)c1	-18	-15	3	0.6	-1	13
CC(C(=O)O)c1cccc(C(=O)c2ccccc2)c1 (stereo unspecified)	-21	-23	4	0.5	2&3	12
O=C(COc1ccc(Cl)cc1Cl)Nc1noc2ccccc12	-6	0	3	0.2	0	9
Cn1ncc(Br)c1C(=O)O	2	-30	4	1.1	7	8
CC(=O)OCC(=O)[C@@]1(O)CC[C@H]2[C@@H]3CCC4=CC(=O)CC[C@]4(C)[C@H]3C(=O)C[C@@]21C	-2	-36	-1	.	0	10
COc1ccccc1C(=O)n1nc(C)cc1C	1	-25	-3	0.5	2	8
CCNC(=O)C1CC(=O)N(CC)C(=Nc2cc(Cl)c(O)c(Cl)c2)S1 (stereo unspecified)	13	-25	-1	0.8	0	10
CN(C)c1ccnc2c[cH-]cc12.[Fe].c1ccc(-[c-]2[c-](-c3ccccc3)[c-](-c3ccccc3)[c-](-c3ccccc3)[c-]2-c2ccccc2)cc1 (stereo unspecified)	-2	-21&-28	-2	.	1&-1	10
Nc1c2c(nc3ccccc13)CCCC2	-6	4	9	1.0	-9	10
O=C(CSc1ncnc2ccccc12)NCc1ccc2c(c1)OCO2	7	-3	12	-1.2	-5	.
CCc1cccc2c3c([nH]c12)C(CC)(CC(=O)O)OCC3 (stereo unspecified)	-8	-14	3	0.8	-8	11
O=C(NC(=S)NC1CCCc2ccccc21)c1ccco1 (stereo unspecified)	0	-22	3	0.5	7	8
CCCCc1oc2ccccc2c1C(=O)c1cc(I)c(OCCN(CC)CC)c(I)c1	-13	-17	-1	-1.2	-3	7
CC(O)Cn1cnc2c1c(=O)n(C)c(=O)n2C (stereo unspecified)	-15	-15	-3	1.1	-3	4
CC/C(=C(/CC)c1ccc(O)cc1)c1ccc(O)cc1	-4	-11	-7	1.2	5	5
CC1(C)S[C@@H]2[C@H](NC(=O)[C@H](C(=O)O)c3ccsc3)C(=O)N2[C@H]1C(=O)O	-9	-14	12	-0.1	.	7
CN1CCN2c3ccccc3Cc3ccccc3C2C1 (stereo unspecified)	-7	-10	22	-0.7	-2	27

Individual results from the entries so far:
CC1(C)S[C@@H]2[C@H](NC(=O)[C@H](C(=O)O)c3ccsc3)C(=O)N2[C@H]1C(=O)O @ KLK5 inh: -9
CCNC(=O)C1CC(=O)N(CC)C(=Nc2cc(Cl)c(O)c(Cl)c2)S1 (stereo unspecified) @ FXIa inh 1536: -1

Molecules from the list above with nitrogen in an aromatic ring (13):
SMILES	KLK5 inh	Furin inh	FXIa inh 1536	PERK inh	Rad51 HR inh	FXIIa inh
COc1ccc(C(=O)n2nc(C)c(Br)c2C)cc1	12	-17[20 µM]	9	-0.3	4	19
O=C(O)Cn1nc(C(F)(F)F)c2c1CCCCC2	-10	-17	-8	0.5	-2	8
O=S(=O)(c1ccc2nc(SCc3cccc(Cl)c3)[nH]c2c1)N1CCOCC1	-15	-16	4	-1.2	-6	12
Cn1c(=O)n(C)c2cc(/C=N/NC(=O)c3cccc(Br)c3)ccc21	-12	-21[20 µM]	-3	-1.1	-5	3
Cc1nc(=O)c(-c2ccccc2)c(C)n1-c1ccc(O)c(C(=O)O)c1	-18	-15	3	0.6	-1	13
O=C(COc1ccc(Cl)cc1Cl)Nc1noc2ccccc12	-6	0	3	0.2	0	9
Cn1ncc(Br)c1C(=O)O	2	-30	4	1.1	7	8
COc1ccccc1C(=O)n1nc(C)cc1C	1	-25	-3	0.5	2	8
CN(C)c1ccnc2c[cH-]cc12.[Fe].c1ccc(-[c-]2[c-](-c3ccccc3)[c-](-c3ccccc3)[c-](-c3ccccc3)[c-]2-c2ccccc2)cc1 (stereo unspecified)	-2	-21&-28	-2	.	1&-1	10
Nc1c2c(nc3ccccc13)CCCC2	-6	4	9	1.0	-9	10
O=C(CSc1ncnc2ccccc12)NCc1ccc2c(c1)OCO2	7	-3	12	-1.2	-5	.
CCc1cccc2c3c([nH]c12)C(CC)(CC(=O)O)OCC3 (stereo unspecified)	-8	-14	3	0.8	-8	11
CC(O)Cn1cnc2c1c(=O)n(C)c(=O)n2C (stereo unspecified)	-15	-15	-3	1.1	-3	4
